RN4220 kill = S. aureus RN4220 growth inhibition; OD600, 16 h; inhibition, % (no concentration beside the values); 0.33% of 330,000 active;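 active = z-score of -3 or lower and OD600 up to 0.18 on both plates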;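 note: plate controls were untreated cells for no effect and reference antibiotic for full effect; stock transfer was 100 nL into about 80 µL; one replicate is shown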
BJeLR viability = kills HRASV12-expressing BJeLR cells | 0.17% of 300,000 active | BJeLR (HRASV12) viability, CellTiter-Glo ATP luminescence, 48 h; reference of the scale not given here | AID 1554 | inhibition, % (no concentration beside the values);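 active = replicate mean above 50%; inconclusive = above 50% but judged a plate artefact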;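 note: 50 nL library stock added to about 25 µL; numbers are from one replicate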
ugtP null kill = kills S. aureus RN4220 lacking UgtP | S. aureus RN4220 ugtP deletion, OD600 growth, 16 h; some inactives read as strong as hits | growth inhibition, % (test concentration not listed) | 0.54% of 330,000 active;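 active = z-score under -3 and OD600 up to 0.15 on both plates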;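 note: plate controls were untreated wells for no effect and antibiotic for full effect; wells of about 80 µL received 100 nL stock; the first replicate is given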
Mtb hypoxia inh = Mtb hypoxia fluorescent reporter inhibition | 0.1% of 300,000 active | fluorescence inhibition, % (no concentration beside the values) | M. tuberculosis hypoxia-regulated fluorescent reporter, fluorescence;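 active = 35 to 45% if threefold the growth effect, above 45% if 1.5-fold the growth effect; inactive = the rest, general growth blockers included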;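 note: wells of about 50 µL received 100 nL stock; 0% = vehicle wells and 100% = reference inhibitor wells; whole bacteria with a GFP reporter of the hypoxia response; strong numbers were not always called active; many hits fall short of the cut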
Bead autofluor = compound fluorescence in toxin protease inhibitor counterscreen; 3.1% of 360,000 active; compound autofluorescence counterscreen, microsphere flow cytometry; active compounds read high; AID 624483; fluorescence intensity (no concentration beside the values);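 active = at least 3 SD above the mean of all compounds, about 16000 in these data; inconclusive = too few beads counted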;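 note: 100 nL of 1 mM stock went into each well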
PrP UTR inh = inhibition of PrP 5' UTR reporter expression | cell-based PrP 5' UTR mRNA reporter, plate reader | inhibition, % (test concentration not listed) | 0.35% of 340,000 active;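 active = every replicate at 50% or more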;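 note: 0 = median of the neutral control wells; tested in H4 reporter cells; numbers are from one replicate; inactives centre near -14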
Mtb hypoxia inh growth = second read-out of Mtb hypoxia inh, no call of its own (marks repeat the call); growth inhibition, %; measured here: M. tuberculosis growth (absorbance);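 0% = vehicle and 100% = reference antibiotic; read after six days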
* hit, by the source's call; ? = inconclusive; . = not tested or not shown. Compounds were not picked by outcome; 4% or so of the library scored in one or more.

Molecule,Bead autofluor,BJeLR viability,RN4220 kill,ugtP null kill,PrP UTR inh,Mtb hypoxia inh,Mtb hypoxia inh growth
COc1ccccc1NS(=O)(=O)c1cccc(C(=O)NCC(c2cccs2)N(C)C)c1 (stereo not drawn),3696,.,2.3,-1,-39,3,7
Cc1nnc(NC(=O)C2CCN(S(=O)(=O)c3ccc(F)c(Cl)c3)CC2)o1,?,.,5.1,10,-3,8,-10
CC(C)CCN(CCC(C)C)C(=O)Cc1c(O)c2ccccc2[nH]c1=O,4471,-4,2.1,-3,.,0,-2
CCCCn1nnc(NC(=O)c2ccco2)n1,3109,1,-0.7,1,-14,7,3
COc1ccc(OC)c(NC(=O)CSC2=C(C#N)C(c3ccco3)C3=C(CCCC3=O)N2)c1 (stereo not drawn),4044,4,5.2,1,-21,2,8
CCNc1nc(NCC)nc(OCCOC(=O)c2ccccc2)n1,10192,1,-0.7,-1,-12,-4,0
CCOC(=O)C1=C(CN2CCN(C(=O)c3ccco3)CC2)NC(=O)NC1c1ccc(Cl)cc1 (stereo not drawn),5642,1,1.4,-1,-2,-3,3
CCCC[C@@]1(C2CCCC2)Cc2cc(OCC(=O)O)c(Cl)c(Cl)c2C1=O,6495,.,12,47,-20,12,11
O=C(O)C1=CC(C2CCCCC2)CC(OCCCCO)O1 (stereo not drawn),.,.,5.9,-3,.,10,7
O=C(O)CCc1ccc(-c2ccccc2)n1NC(=O)c1cccs1,3490,-11,5.3,2,-5,5,-1
COCCCNC(=O)CC(NS(=O)(=O)c1ccc(OC)cc1)c1ccc(OC)cc1 (stereo not drawn),2391,0,1.3,-2,-19,.,.
CCCN(CCC)CCNc1c(N2CCN(C(=O)OCC)CC2)c(=O)c1=O,11003,-4,4.9,2,-13,12,3

More records follow:
Molecule,Bead autofluor,BJeLR viability,RN4220 kill,ugtP null kill,PrP UTR inh,Mtb hypoxia inh,Mtb hypoxia inh growth
O=C(c1ccc(F)cc1)C1CCN(C(=O)Nc2ccc(F)cc2F)CC1,4842,5,1.7,0,-27,2,-1
O=C(NOC(=O)c1ccccc1Cl)c1cccs1,9895,-3,6.7,-5,-23,17,0
CN(C)C(CNC(=O)C1CC(=O)N(Cc2ccccc2)C1)c1ccccc1 (stereo not drawn),5761,-3,0.0,-1,-17,1,1
COc1ccc(NC(=O)CC(C(=O)O)N2CCCCC2)cc1 (stereo not drawn),10096,-25,5.3,1,-20,0,3
COc1cc(OC)cc(C(=O)NC2CC3CCC(C2)N3Cc2ccco2)c1 (stereo not drawn),4034,-11,0.8,0,-17,-88,-9
Cc1ccc(-c2csc(SCC(=O)c3c(N)n(C4CC4)c(=O)[nH]c3=O)n2)cc1,.,.,0.8,9,-22,14,-2
COC(=O)C(CCSC)NC(=O)NC1CCN(Cc2ccccc2)CC1 (stereo not drawn),.,.,7.0,1,.,-2,-7
CC1=C(C(=O)OCCC(C)C)C(c2ccc3c(c2)OCO3)NC(=O)N1 (stereo not drawn),4620,0,4.8,-1,-1,-2,-3
COc1ccc(NC(=O)/C(=C\c2ccncc2)NC(=O)c2ccccc2)cc1,4482,0,4.8,1,-25,13,4
Cc1ccc(SCC2=NNC(=O)C2)cc1,22739*,3,3.9,-5,-15,-1,12
CC(NCc1ccccc1O)c1ccccc1 (stereo not drawn),4686,0,4.0,3,-20,8,2
CCOC(=O)c1cc(C#N)c(Nc2ccccc2OC)nc1C(F)(F)F,4440,-10,2.2,14,-33,16,-6

More entries follow:
Molecule,Bead autofluor,BJeLR viability,RN4220 kill,ugtP null kill,PrP UTR inh,Mtb hypoxia inh,Mtb hypoxia inh growth
CN(C)c1ccc(N2C(=NC(=O)CC3CCCCC3)SC3CS(=O)(=O)CC32)cc1 (stereo not drawn),6184,6,1.5,-3,-5,-8,3
CCOC(=O)c1ccc(NC(=O)CSc2nnc(CC)o2)cc1,6070,-6,-1.0,1,-18,4,11
O=C(NCc1ccco1)c1ccc(OCC2CCCO2)cc1 (stereo not drawn),5689,1,2.4,1,-30,17,17
COc1ccc(-c2cc(C(=O)Nc3cccnc3Cl)no2)cc1,3690,7,-0.5,-1,-47,2,-4
Cc1cc(C)n(CC(O)COc2ccc(C(C)(C)C)cc2)n1 (stereo not drawn),5579,7,3.0,2,-24,17,11
O=C(Nc1ccc2oc(-c3cccnc3)nc2c1)c1cccnc1,8158,7,5.6,-8,-28,3,8
Cc1ccc(S(=O)(=O)N2C(=O)CCC2C(=O)O/N=C(\N)c2ccc([N+](=O)[O-])cc2)cc1 (stereo not drawn),6090,-2,0.5,2,-59,3,5
Cc1nn(-c2ccc(Cl)cc2)c2[nH]c(CCl)cc(=O)c12,6208,-1,23,22,5,12,13
CCn1c(SCc2nc3ccccc3s2)nc2cc(S(=O)(=O)N3CCOCC3)ccc21,4841,-4,1.5,15,-23,14,8
COc1ccc(C(=O)NCC(c2ccco2)N2CCCC2)cc1S(=O)(=O)N1CCCCC1C (stereo not drawn),9798,.,0.1,1,-13,4,0
COc1ccc(OC)c(NC(=O)CN2c3cccc4cccc(c34)S2(=O)=O)c1,4782,.,9.2,-1,1,6,0
CCN1CCN(c2ccc(NC(=O)c3cc(OC)c(OC)c(OC)c3)cc2)CC1,3954,-2,-0.9,-3,22,-9,8

(cont.)
Molecule,Bead autofluor,BJeLR viability,RN4220 kill,ugtP null kill,PrP UTR inh,Mtb hypoxia inh,Mtb hypoxia inh growth
Cc1ccc(NS(=O)(=O)c2ccc(N3C(=O)CCC3=O)cc2)cc1,18928*,-9,3.0,-6,-12,7,3
COC(=O)c1cn(-c2ccc(Cl)cc2)c(=O)c2ccccc12,2820,2,7.8,-3,-9,7,12
COc1ccc(OCc2cc(C(=O)NC(C)Cc3cccnc3)no2)c(Cl)c1 (stereo not drawn),5330,-3,0.4,5,-30,5,-7
CCc1cc2c(=O)c(-c3nc4ccccc4[nH]3)coc2cc1OC(=O)N1CCOCC1,5893,4,6.9,-12,-31,-3,12
CN(c1ccc(O)cc1)c1nc(-c2cccnc2)cs1,3302,-15,0.7,-6,-34,-3,-5
NC(=O)CN1C2CCC1CC(NC(=O)C1CC1)C2 (stereo not drawn),8398,3,3.4,2,-20,-86,-27
CCCCc1ccc(NC(=O)Nc2cccnc2)cc1,7027,0,-2.9,-5,-55,2,-1
O=C(CC12CC3CC(CC(C3)C1)C2)N1CCOCC1,4201,-2,2.8,-1,-24,.,.
COc1cccc(CN2CCNC(=O)C2CC(=O)NCCn2nc(C)cc2C)c1OC (stereo not drawn),4177,4,4.4,13,-23,2,5
O=C(O)Cn1nc(C(F)(F)F)c2c1CCCC2,3972,-3,-0.6,-6,-15,-13,-2
Fc1ccc(OCc2nn3cnnc3s2)cc1,6806,-2,1.3,0,-17,21,-10
CCN(CC)CCCN1C=C2C(=O)C(C)(OC(=O)C3CCCC3)C(=O)C(c3ccccc3)=C2C=C1CCCC(=O)OC (stereo not drawn),3353,-2,4.0,0,-43,12,-7

The list continues.
Molecule,Bead autofluor,BJeLR viability,RN4220 kill,ugtP null kill,PrP UTR inh,Mtb hypoxia inh,Mtb hypoxia inh growth
COc1cc2c(cc1OC)CN(C(=O)CNC(=O)c1ccc(OC(F)F)cc1)CC2,5583,0,0.4,-6,-29,4,-1
COc1ccc(/C=C/C(=O)OCC(=O)NCc2cccs2)cc1OC,6939,5,-0.9,14,-23,-1,-1
Cn1c(N)c(S(=O)(=O)N2CCN(c3cccc(Cl)c3)CC2)c(=O)n(C)c1=O,6074,9,-4.8,-2,-1,-4,-6
N/C(=N\OC(=O)CCCc1ccccc1)c1ccccn1,2186,-2,4.0,7,-20,7,2
CC[C@H]1c2[nH]c3ccccc3c2C[C@H]2C(=O)N(c3ccc(F)cc3)C(=O)N21,4921,-5,-0.4,9,-8,.,.
O=C(Nc1ccc(Cl)c(C(F)(F)F)c1)C1CC=CC2CCN(Cc3ccc(Cl)c(Cl)c3)C(=O)C21 (stereo not drawn),.,.,-9.6,-3,.,10,4
CCOc1ccc(C2/C(=C(\O)c3ccc4c(c3)OCCO4)C(=O)C(=O)N2CCCN2CCOCC2)cc1OC (stereo not drawn),5660,-14,-2.5,-10,-13,-11,7
CCS(=O)(=O)Nc1ccc(C2=NN(C(=O)c3ccco3)C(c3cccs3)C2)cc1 (stereo not drawn),5870,7,-3.2,-5,-9,2,11
COc1ccccc1NC(=O)CSc1nc2sc3c(c2c(=O)n1-c1ccccc1)CCN(C)C3,7291,-3,7.2,18,-12,-14,4
Cn1c(CNC(=O)OC(C)(C)C)nnc1SCc1c(Cl)cccc1Cl,4795,0,-1.4,-5,-18,-11,-12
CNC(=O)C(=O)NCCCN1CCOCC1,4505,-6,4.0,11,-10,-3,-1
Cc1ccc2c(c1)cc(CN(CCc1ccccc1)C(=O)N1CCOCC1)c1nnnn12,8960,3,5.5,3,-11,9,9

Entries of single compounds, quoted from the list.
`COc1cc2c(cc1OC)CN(C(=O)CNC(=O)c1ccc(OC(F)F)cc1)CC2` across the screens: Bead autofluor: 5583; BJeLR viability: 0; RN4220 kill: 0.4; ugtP null kill: -6; PrP UTR inh: -29; Mtb hypoxia inh: 4; Mtb hypoxia inh growth: -1
`CC[C@H]1c2[nH]c3ccccc3c2C[C@H]2C(=O)N(c3ccc(F)cc3)C(=O)N21` across the screens: Bead autofluor: 4921; BJeLR viability: -5; RN4220 kill: -0.4; ugtP null kill: 9; PrP UTR inh: -8; Mtb hypoxia inh: .; Mtb hypoxia inh growth: .

Next section.
Molecule,Bead autofluor,BJeLR viability,RN4220 kill,ugtP null kill,PrP UTR inh,Mtb hypoxia inh,Mtb hypoxia inh growth
Cc1ccc(C)c(N2CCN(C(=O)c3ccc(CS(=O)(=O)c4ccccc4C)o3)CC2)c1,9264,-11,10,-22,-52,3,4
Cc1nn(CC(=O)N/N=C/c2ccc(F)cc2)c(C)c1[N+](=O)[O-],4055,-7,.,.,-14,.,.
Cc1c(NS(=O)(=O)c2cccc(C(=O)OCC(=O)N(C)C3CCCCC3)c2)c(=O)n(-c2ccccc2)n1C,4379,-8,14,5,-1,12,1
Cc1ccc(CNC(=O)C2CCN(S(=O)(=O)N3CCCCC3)CC2)cc1,4478,-1,2.9,1,-14,17,9
Cc1cc(C)cc(C(=O)NC(CC(N)=O)c2ccc(N3CCC(N4CCCCC4)CC3)c([N+](=O)[O-])c2)c1 (stereo not drawn),4272,-12,.,.,-15,.,.
COc1ccc(C=NNc2nncn2N)cc1Br,.,.,-5.0,-17,.,0,-13
O=C(Nc1ccc(F)c(Cl)c1)c1ccccc1,3696,.,6.6,4,-78,23,16
COc1ccc(NC(=O)CCCc2nnc3n(C)c(=O)c4sccc4n23)cc1,4958,2,4.7,7,-15,8,0
Cc1ccc2nc(SCC(=O)c3c(N)n(C4CC4)c(=O)[nH]c3=O)[nH]c2c1,5608,.,-1.2,1,-6,-12,1
COC(=O)Nc1ccc2ccc3c(NC(=O)OC)ccc4ccc1c2c43,4171,.,3.2,-3,-23,4,6
Cc1ccc2nc(SCc3nnc(-c4ccccc4[N+](=O)[O-])o3)c(C#N)cc2c1,10498,.,1.0,-6,-32,2,4
CC(NC(=S)Nc1ccc(OC(F)F)c(Cl)c1)C(C)(C)C (stereo not drawn),3516,4,9.9,30,-11,28*,50*

Additional entries:
Molecule,Bead autofluor,BJeLR viability,RN4220 kill,ugtP null kill,PrP UTR inh,Mtb hypoxia inh,Mtb hypoxia inh growth
CCCn1c(SCC(=O)c2ccc3c(c2)OCCO3)n[nH]c1=O,4162,-5,-2.1,-4,-32,-2,9
C/C(=N\NC(=O)c1cccc(S(=O)(=O)N2CCOCC2)c1)c1ccco1,?,-5,.,.,-14,.,.
CSc1ccc(C2NC(=O)CCC2[N+](=O)[O-])cc1 (stereo not drawn),3990,3,0.7,5,-48,9,6
COc1ccc(CN(C)C(=O)c2cnc(OC)cc2C(F)(F)F)c(OC)c1,5829,-8,2.2,8,-13,1,-5
Cc1ccccc1C(=O)Nc1ccc(Br)cn1,8458,8,-3.6,-4,-164,2,6
C=CCc1ccccc1OCC(=O)O,4502,6,1.5,0,-44,10,0
Cc1ccc(S(=O)(=O)N2CCC(=O)N(CCOCc3ccc(Cl)cc3)CC2)cc1,4124,7,5.7,6,-9,7,12
O=C(N/N=C/c1ccc(Br)s1)Nc1ccccc1,4107,-19,.,.,-91,.,.
CCCN(CCC)Cc1c(C(=O)N/N=C/c2ccoc2)nnn1-c1nonc1N,5337,0,.,.,-31,.,.

Assay outcomes as filed in PubChem BioAssay.
